# D2 potentiator: Beta-Arrestin HTS for Positive Allosteric Modulators of the Human D2 Dopamine Receptor: Potentiators; D(2) dopamine receptor (Homo sapiens), P14416; DiscoveRx D2 beta-arrestin cells, luminescence, 90 min; 100% = 57 uM dopamine signal; potentiation, % (concentration not given with the values); 360,000 compounds, 0.23% hits; active = potentiation of 50% or more; inconclusive = 30% to 50%; inactive = 30% or less;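 further: tested on top of an EC20 dose of dopamine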
#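 PathHunter D2 cells, attached overnight at 37 deg C, received compound in DMSO plus dopamine at EC20 (50 nM final) for 90 min at 37 deg C. Beta-arrestin recruitment was read as luminescence after 1 h with detection reagent at ambient temperature.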
# Sfp PPTase inh: qHTS Assay for Inhibitors of Bacillus subtilis Sfp phosphopantetheinyl transferase (PPTase); 310,000 compounds, 3.5% hits; Biochemical Sfp PPTase activity, qHTS; AID 1490, 2009; Potency, µM, inactives show max response, negative = inhibition, most hits filed as inhibitors; 4'-phosphopantetheinyl transferase ffp (Bacillus subtilis), Q9F4F7; active means well fitted inhibition curve with a large enough effect; inconclusive means small, poorly fitted or top-dose-only effect, or another doubt; inactive means no such curve, though single readings can be large or run the other way;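 further: the enzyme is Sfp with the accession as filed and its product quenches rhodamine fluorescence; potency means the concentration at half of the fitted maximal effect; 0% = enzyme reaction without inhibitor and -100% = no enzyme wells; top concentration of the series not given in the record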
#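 After 15 min at room temperature with compound, 15 nM Sfp received 5 uM rhodamine-CoA plus 12.5 uM BHQ-2-ybbR (50 mM Hepes pH 7.6, 10 mM MgCl2). Rate came from the fluorescence difference over 30 min, ex 525/em 598 nm.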
# Menin MLL FP FL: qHTS Assay for Inhibitors Targeting the Menin-MLL Interaction in MLL Related Leukemias: Competition With Fluorescein Labeled MLL-derived Peptide | Fluorescence polarization, fluorescein-MLL peptide displacement from menin | FP activity change, % at 61.4 µM | 290,000 tested, under 10 active | AID 1766, 2009; inconclusive = falling polarisation curve, or a change in total fluorescence; inactive = total fluorescence flat and polarisation flat or rising; no compound was filed as active; the % refers to the polarisation; negative = inhibition;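 further: % of control where 0% means no effect; inhibitors lower the polarisation; unlabelled MLL peptide was the positive control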
# ClpP mod: qHTS Assay for Activators of ClpP; Potency, µM (top dose mostly 57.5 µM), for inactives: at the highest dose activity change, negative = active; ATP-dependent Clp protease proteolytic subunit (Bacillus subtilis (strain 168)), P80244; purified B. subtilis ClpP, FRET peptide cleavage, 20 min; AID 651965, 2013; 340,000 compounds, 1.9% hits; active = well fitted falling curve with a large enough effect; inconclusive = small, poorly fitted or top-dose-only effect; inactive = no such curve, though single readings can be large or run the other way; further: potency means the concentration at half of the fitted maximal effect; the source files actives as falling curves though it sought activators and does not explain the sign; nearly all actives have a fitted effect of over 65% in size; many hits overshoot -100%
# Target sequence (P80244 whole entry, looked up): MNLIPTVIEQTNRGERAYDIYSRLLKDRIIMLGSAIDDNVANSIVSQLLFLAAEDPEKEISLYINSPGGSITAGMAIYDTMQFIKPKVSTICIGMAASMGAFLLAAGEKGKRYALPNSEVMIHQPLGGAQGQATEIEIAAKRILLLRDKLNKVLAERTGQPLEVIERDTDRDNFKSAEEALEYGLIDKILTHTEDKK
#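 Buffer: 100 mM Tris/HCl pH8, 100 mM KCl, 0.05% low protease BSA, 2.5% glycerol, 0.01% Tween-20. ClpP 10 microg/mL final; 20 min RT; delta FRET normalized to ADEP and DMSO controls.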
# TRPV1 potentiator: HTS Assay for Compounds that Act as Potentiators of the Vanilloid Receptor 1 | Transient receptor potential cation channel subfamily V member 1 (Homo sapiens), Q8NER1 | TRPV1-expressing cells, Fluo-8 calcium influx, capsaicin EC20 potentiation; host cell line not named in the record; control for the full effect not named in the record | potentiation, % at 8.33 µM | 320,000 compounds, 0.02% hits; active means potentiation above 80%; inconclusive means 30% to 80%; inactive means below 30%; further: 0% is about no effect
# Target sequence (Q8NER1 whole entry, looked up): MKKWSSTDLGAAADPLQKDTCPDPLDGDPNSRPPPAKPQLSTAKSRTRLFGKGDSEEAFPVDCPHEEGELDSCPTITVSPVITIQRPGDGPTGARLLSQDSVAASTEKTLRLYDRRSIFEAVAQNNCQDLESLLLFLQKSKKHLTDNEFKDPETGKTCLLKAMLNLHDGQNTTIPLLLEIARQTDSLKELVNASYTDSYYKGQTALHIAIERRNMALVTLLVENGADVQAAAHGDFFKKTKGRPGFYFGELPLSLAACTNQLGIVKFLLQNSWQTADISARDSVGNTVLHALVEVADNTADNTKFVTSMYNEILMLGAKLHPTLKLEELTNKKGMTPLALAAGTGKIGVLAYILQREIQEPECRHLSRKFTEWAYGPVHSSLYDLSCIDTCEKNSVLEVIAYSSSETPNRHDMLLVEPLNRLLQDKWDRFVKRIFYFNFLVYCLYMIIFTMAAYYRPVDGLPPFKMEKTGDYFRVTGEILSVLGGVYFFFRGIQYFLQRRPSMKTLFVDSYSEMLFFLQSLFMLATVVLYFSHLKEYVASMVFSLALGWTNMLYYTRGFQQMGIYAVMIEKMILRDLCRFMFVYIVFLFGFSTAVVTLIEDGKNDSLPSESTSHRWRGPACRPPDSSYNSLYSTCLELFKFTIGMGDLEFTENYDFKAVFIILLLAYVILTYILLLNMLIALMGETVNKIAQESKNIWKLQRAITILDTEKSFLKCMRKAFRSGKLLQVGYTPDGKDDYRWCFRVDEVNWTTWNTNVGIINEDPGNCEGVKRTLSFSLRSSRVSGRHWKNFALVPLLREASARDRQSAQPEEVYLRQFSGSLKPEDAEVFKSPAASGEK
#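 TRPV1-expressing cells were cultured overnight at 35.5C and loaded with Fluo-8 calcium dye for 40 to 90 min at room temperature. After a 10 s baseline, compound was added and calcium influx was read kinetically for 3 min (ex 480/em 520 nm).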
# gsp antag: qHTS for Antagonists of gsp, the Etiologic Mutation Responsible for Fibrous Dysplasia/McCune-Albright Syndrome: qHTS | 340,000 compounds, 0.4% hits | gsp-mutant cells, cAMP HTRF, 30 min; control for the full effect not named in the record | Potency, µM (titrated, usually from 76.9 µM), for inactives: top-dose activity change, negative = inhibition, hits mostly inhibitors; active = falling curve of any shape with a large fitted effect; inconclusive = falling curve, mostly with a smaller effect; inactive = flat or rising curve; cell line not stated here;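 further: intracellular cAMP measured with PDE inhibitor Ro 20-1724 present during compound exposure; potency means the concentration at half of the fitted maximal effect; on the % scale 0 is the no-effect control and ±100 the full control effect; nearly all actives have a fitted effect of over 65% in size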
#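 Measurement of cellular cAMP by homogeneous time-resolved fluorescence following a 30 min compound exposure at 37C. The PDE inhibitor […] was present throughout; the assay buffer was DPBS with 0.05% BSA and 0.005% Tween 20.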
# gsp ag: qHTS for Agonist of gsp, the Etiologic Mutation Responsible for Fibrous Dysplasia/McCune-Albright Syndrome: qHTS; gsp mutant cells, cAMP HTRF, 30 min; control for the full effect not named in the record; Potency, µM (series often up to 76.9 µM), without a hit: at the highest dose activation (cAMP increase), most hits filed as activators; 340,000 compounds, 0.13% hits; AID 624287, 2012; active = well fitted activation curve with a large enough effect; inconclusive = small, poorly fitted or top-dose-only effect, or another doubt; inactive = no such curve, though single readings can be large or run the other way; cell line not stated here;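 further: phosphodiesterase inhibitor Ro 20-1724 added with compounds to block cAMP breakdown; potency means the concentration at half of the fitted maximal effect; nearly all actives have a fitted effect of over 60% in size; about a fifth of the inactives were tested at one dose only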
#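 Cells in DMEM/10% FBS with G418 were pretreated with compounds in DMSO plus […] (300 uM stock) for 30 min at 37C. cAMP was measured by HTRF (cAMP-d2 plus anti-cAMP antibody-K) after 30 min at room temperature.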
# An asterisk follows results filed as active; ? = inconclusive; · = not tested or not shown; & = joins results of further samples; [ ] = dose if it differs, or a comment.
SMILES,D2 potentiator,Sfp PPTase inh,Menin MLL FP FL,ClpP mod,TRPV1 potentiator,gsp antag,gsp ag
C[C@@H]1CC[C@H]2C(=O)N3[C@@H](CC[C@@H](C)[C@@H]3c3ccc(Br)cc3)C(=O)N2[C@H]1c1ccc(Br)cc1,-2,6%,0.3,0.5%,0,-24%,·
CCOCCCNC(=O)/C=C1\Sc2ccccc2N(Cc2ccccc2F)C1=O,-10,-22%,0.0,-1.2%,14,-10%,24%
C=CCn1cc(/C=C2\SC(N3CCOCC3)=NC2=O)c2ccccc21,-9,-6%,4.6,-0.7%,1,-20%,-58%[inhibitor]
NC(=O)C[n+]1cccc2ccccc21,1,-7%,?,-28%,-9,6%,-7%
N#CC(C#N)=C1c2cc(S(=O)(=O)NCCO)ccc2-c2ccc(S(=O)(=O)NCCO)cc21,2,56µM*,?,1.1%,10,-14%,-32%[inhibitor]
O=C(O)C(Cc1c[nH]c2ccccc12)NS(=O)(=O)c1cccc(Cl)c1Cl (stereo not given),-2,3%,0.7,-1.0%,?,9%,0%
CN(Cc1cccs1)C(=O)Cn1cnc2cc([N+](=O)[O-])ccc2c1=O,2,11%,11,-0.4%,5,-19%,1%
N=C1S/C(=C\c2ccccc2F)C(=O)N1c1ccc(F)cc1,-11,-4%,0.1,1.7%,-8,-1%,-9%
Cc1ccc(-n2[nH]c(C)c(/C=N/c3ccccn3)c2=O)cc1,-4,8%,0.4,-1.0%,-20,-11%,13%
O=C(N/N=C/c1ccc(Cl)cc1)c1nc2ccc([N+](=O)[O-])cc2c(=O)[nH]1,1,-6%,0.3,0.5%,3,-5%,10%
Cc1ccccc1Cc1n[nH]c(=S)n1N,-1,-30%,-0.1,-0.9%,3,10%,-4%[15.4 µM]
Cc1[nH]c2ccccc2c1-c1csc(NC(=O)CN2CCOCC2)n1,-13,1%,5.4,-2.0%,14,-1%,2%[15.4 µM]
O=C(NC12CC3CC(CC(C3)C1)C2)c1ccc(-c2ccc(Cl)cc2)o1,-21,-1%,·,32µM*,-6,-10%,-15%
O=C(NCC(c1cccnc1)N1CCN(c2ccccc2F)CC1)OCc1ccccc1 (stereo not given),3,9%,1.0,0.6%,-21,-15%,-5%
Cc1cccc(-n2c(-c3cccc([N+](=O)[O-])c3)nc3nc4ccccc4nc32)c1,·,-9%,1.2,·,-3,·,·
COc1ccccc1Oc1ccc(S(=O)(=O)N2CCCCC2)cc1NC(=O)CCNC(C)=O,-8,11%,·,0.4%,-3,5%,-34%[inhibitor]
CN(C)c1ccc(NC(=O)CN2CCC(C(=O)c3ccc(F)cc3)CC2)cc1,-14,-12%,-0.4,-1.5%,-16,9%,-1%
O=C(Cc1cccs1)Nc1nnc(SCc2ccc(C(F)(F)F)cc2)s1,-9,8%,-0.5,-2.6%,-6,7%,1%
COc1ccc(CC(=O)N2CCC(CCC(=O)Nc3ccccc3)CC2)cc1,-12,6%,0.1,0.9%,8,-4%,?
Cc1ccc(S(=O)(=O)c2nc(C)oc2N2CCOCC2)cc1,-1,11%,-2.1,·,-2,-4%,3%[15.4 µM]
COc1cc(/C=C/C(=O)N(Cc2ccccc2)c2ccccn2)cc(OC)c1OC,-10,-7%,5.0,-17%,3,-11%,0%
CC(=O)C1=C(c2ccccc2)NC(=O)NC1c1ccccc1 (stereo not given),1,8%,-1.1,2.0%,-22,2%,13%
O=C(COC(=O)C1(c2ccc(Cl)cc2)CCCC1)NCc1ccco1,-1,?,0.0,·,-10,·,-5%[15.4 µM]
O=C(O)c1ccc(COc2ccc3ccccc3c2)o1,-10,?,0.5,-0.6%,-15,-2%,9%
O=C(CSc1nc2ccccc2c(=O)n1NC(=O)Cc1ccccc1)NCCc1ccccc1,-3,19%,-0.4,-0.2%,-11,-4%,-43%[inhibitor]

# Other compounds follow.
SMILES,D2 potentiator,Sfp PPTase inh,Menin MLL FP FL,ClpP mod,TRPV1 potentiator,gsp antag,gsp ag
COC(=O)c1cc(NC(=O)C2(S(=O)(=O)c3ccc(Cl)cc3)CC2)cc(C(=O)OC)c1,-12,1%,-0.4,-0.9%,0,-2%,-55%[inhibitor]
COc1ccc(NC(=O)c2nn(C)c3c2CS(=O)(=O)c2ccccc2-3)cc1,-15,10%,-1.5,22%,-8,-2%,?
COc1ccc(N/C=C/C(=O)C(F)(F)F)cc1,-5,11%,3.4,-2.6%,-4,9%,?
O=Cc1cccc(OC(=O)/C=C/c2ccco2)c1,?,-31%,?,0.2%,2,-7%,13%
O=C(COC(=O)/C=C/c1cnc2ccccc2n1)NCC(F)(F)F,-2,11%,5.0,-2.1%,0,4%,-3%
Cc1cc(C)nc(SCc2nnc(SCC(N)=O)n2Cc2ccco2)n1,3,1%,2.8,0.2%,6,0%,2%
CCOC(=O)COc1cc2oc(=O)cc(C)c2cc1[N+](=O)[O-],-11,4%,0.9,0.6%,-2,-4%,8%
O=C(COC(=O)c1cc(-c2cccc3ccccc23)nc2ccccc12)NC1CCS(=O)(=O)C1 (stereo not given),-15,-25%,?,-8.2%,-19,1%,-36%[inhibitor]
CN(C)CCNC(=O)C(=O)NCC(c1ccc2c(c1)OCO2)N1CCN(c2ccc(F)cc2)CC1 (stereo not given),-13,5%,1.1,0.4%,7,23%,?
Fc1ccc2c(c1)/C(=N/Nc1ccccn1)CCS2,-11,1%,5.3,·,-4,-7%,32%[15.4 µM]
C=CCNC(=S)NNC(=O)c1csc(C)c1C,-21,-4%,2.3,-3.8%,13,5%,12%
Cc1cccc2sc(N(CCCN(C)C)C(=O)COc3ccc(Cl)cc3)nc12,-19,?,4.3,·,-9,3%,-5%
Cc1cc(NC(=O)c2cc(F)c(F)cc2Cl)no1,1,20%,3.3,0.6%,?,24%,-12%[15.4 µM]
CCc1cccc(CC)c1NC(=O)c1cccc(NC(=O)c2ccccc2)c1,-6,21%,-0.5,0.8%,-15,-12%,-26%
CCOC(=O)CCC(NC(=O)CCCCC(=O)NC(CCC(=O)OCC)C(=O)OCC)C(=O)OCC (stereo not given),-17,22%,6.5,0.0%,1,12%,20%
CC1CC(C)(C)CC2(C1)NC(=O)N(CC(=O)N1CCN(Cc3ccc(C#N)cc3)CC1)C2=O (stereo not given),-8,·,·,-1.9%,3,5%,-46%[inhibitor]
O=C(c1ccco1)N1CCN(S(=O)(=O)c2ccc3c(c2)CCN3C(=O)C2CC2)CC1,-10,-14%,4.7,-1.1%,-1,-7%,-6%
C1=CC2=NC34CCCCC3CC3=C(CCCC3)N4C2=CC1=NC1CCCCC1 (stereo not given),-28,·,·,0.2%,·,-11%,0%
C[C@@H]1CN([C@@H](C)CO)C(=O)Cc2cc(NS(=O)(=O)c3cn(C)cn3)ccc2O[C@@H]1CN(C)C(=O)Nc1ccccc1,-9,·,·,-0.8%,·,6%,·
COC(=O)c1cc(N=C(N)N=C(N)N)cc(C(=O)OC)c1,1,15%,-0.8,-14%,-13,4%,-10%
CCN(Cc1ccccc1)c1ccc(/C=N/NS(=O)(=O)c2ccc(C)c([N+](=O)[O-])c2)cc1,-22,?,1.5,-3.3%,-8,9%,-5%
O=C(O)/C=C\c1ccccc1Oc1ccc(F)cc1,-5,0%,1.2,·,-9,-20%,-5%
Cc1noc(C)c1COc1ccc(C(=O)NNC(=O)c2ccccc2F)cc1,-2,·,·,0.2%,-7,-1%,-29%
CN(C)NC(=O)c1cccc(Cl)c1,-10,14%,-1.3,-4.2%,-4,11%,3%[15.4 µM]
Cc1ccc(S(=O)(=O)N(C)C)cc1NC(=O)CN1CCCC1,-22,7%,·,·,5,8%,9%
O=C(CSc1nnc(Cc2cc(=O)[nH]c(=O)[nH]2)n1-c1ccccc1)N1CCCC1,-2,1%,1.1,-2.4%,?,5%,0%
C[C@]12CC[C@H](O)CC1=CCC1C2CC[C@@]2(C)C1CC[C@@H]2NCc1ccccc1 (stereo not given in full),-16,·,·,-1.3%,·,·,-18%
O=C(Nc1ccncc1)c1ccc(Cl)c(Cl)c1,-8,1%,-0.4,·,-19,-2%,1%
C[C@H]1NC(=O)[C@@]2(C)[C@@H](c3ccccc3)[C@H]3COc4ccccc4[C@H]3N2C1=O,-12,·,·,-5.8%,-13,-2%,·
Cc1nn(CCCC(=O)NCCc2ccc(Cl)cc2)c(=O)c2nn(-c3ccccc3)c(C)c12,-6,2%,·,-5.1%&-3.0%,-14,-18%,?
